Source: PubChem BioAssay (National Center for Advancing Translational Sciences (NCATS))
Rango release inh – inhibitors of RanGTP-induced Rango-importin beta complex dissociation | Potency, µM (highest dose often 46.1 µM), inactives show at the top dose activity change, negative = inhibition | Biochemical FRET Rango-importin beta, RanGTP-induced dissociation | hit rate 0.071% among 340,000 | O95149+P62826 | AID 540253; active means falling FRET ratio curve, often poorly fitted, with flat reads before Ran was added; inconclusive means other falling curves, or compound fluorescence or quenching; inactive means flat or rising ratio curve;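 further: potency means the concentration at half of the fitted maximal effect; % of control where 0% means no effect; nearly all actives have a fitted effect of over 45% in size; -100% = wells without RanGTP and RCC1; the record marks most hits as doubtful in a second field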
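Rango/importin beta premix (0.1/0.25 uM final), PBS + 1 mM DTT + 0.02% Tween-20 + 0.1% BSA; cpd 5 min RT; FRET pre-read; + RanGTP-RCC1 (0.6 uM Ran, 2 mM GTP, 0.2 uM RCC1); 45 min RT; FRET post-read, ex 430, em 486/530 nm.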
GLA inh pH 4.5 – alpha-galactosidase A (human) inhibition, pH 4.5 | activity change, negative = inhibition, % at 105 µM | P06280 | 230,000 tested, under 10 active | purified enzyme, 4-MU-alpha-Gal fluorescence, pH 4.5; inconclusive = small, poorly fitted or top-dose-only inhibition, or a rising curve; inactive = flat fitted curve, though single readings scatter; no compound was filed as active;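 further: 0% = full activity with enzyme and -100% = basal without enzyme; dose as in the result columns while the protocol names 77 µM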
Target sequence (P06280 whole entry, looked up): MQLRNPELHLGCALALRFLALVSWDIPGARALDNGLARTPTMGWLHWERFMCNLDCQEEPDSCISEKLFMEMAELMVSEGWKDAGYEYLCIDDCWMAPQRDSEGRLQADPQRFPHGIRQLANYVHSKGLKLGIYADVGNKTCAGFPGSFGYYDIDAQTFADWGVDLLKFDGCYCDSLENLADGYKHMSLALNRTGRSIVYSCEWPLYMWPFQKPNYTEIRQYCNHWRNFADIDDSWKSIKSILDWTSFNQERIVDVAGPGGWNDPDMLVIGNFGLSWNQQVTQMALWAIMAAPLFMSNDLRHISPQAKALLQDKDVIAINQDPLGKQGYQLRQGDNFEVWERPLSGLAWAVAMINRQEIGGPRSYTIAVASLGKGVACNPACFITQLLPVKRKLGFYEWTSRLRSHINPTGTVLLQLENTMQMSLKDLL
Rango complex inh – Rango-importin beta binding inhibition; Q14974; Rango CFP/YFP FRET sensor + importin beta, 45 min; Potency, µM (titrated, usually from 92.2 µM), inactives show top-dose inhibition of complex formation; hit rate 0.031% among 340,000; active = rising FRET ratio curve, often small or poorly fitted; inconclusive = mostly compound fluorescence or quenching in the first reads; inactive = flat curves in all reads;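 further: potency means the concentration at half of the fitted maximal effect; 0% = DMSO wells and 100% = buffer wells lacking importin beta; nearly all actives have a fitted effect of over 15% in size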
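FRET biosensor (snurportin 1 IBB flanked by EYFP and cerulean), 50 nM, with compound 5 min, then 0.125 microM importin beta in PBS, 1 mM DTT, 0.02% Tween-20, 0.1% BSA. CFP/YFP ratio read after 45 min at room temperature; pre-read flags interference.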
miR-21 FLuc – raises the signal of a miR-21 reporter. HeLa miR-21 FLuc reporter, luciferase, 48 h. Potency, µM (series often up to 38.3 µM), for inactives: at the top dose reporter change, positive = more light. 340,000 tested, under 10 active. AID 2288; active = well fitted rising curve with a large enough effect; inconclusive = small, poorly fitted or top-dose-only effect; inactive = no such curve, though single readings can be large or run the other way;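 further: % of control where 0% means no effect; miR-21 action dims this reporter so a rising signal means less miR-21 action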
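Compounds were titrated across several concentrations (up to approximately 40 uM) and incubated 48 hours with HeLa miR-21-FLuc reporter cells (miR-21 target sequence downstream of FLuc, endogenous miR-21). Readout was firefly luciferase luminescence after lytic detection reagent.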
* = called active by the depositor; ? = inconclusive; nt = no result given; [ ] = dose if it differs, or a comment. These rows are one share of the data. The share of hits here may be higher or lower than overall.

Rango release inh,GLA inh pH 4.5,Rango complex inh,miR-21 FLuc,SMILES
-6.1%,2.5,0.8%,-2.1%,O=C(CSc1nnnn1-c1ccc2c(c1)OCCO2)N1CCc2ccccc21
0.0%,4.3,-0.4%,-0.5%,COc1cccc(N2CCN(C(=S)Nc3cccc(C)c3)CC2)c1
4.5%,-1.6,-3.2%,8.7%,Brc1cnc2nc(SCc3nc4ccccc4[nH]3)[nH]c2c1
-7.7%,nt,-1.5%,5.0%,Cc1nc(C)c(-c2csc(Nc3ccc(S(N)(=O)=O)cc3)n2)s1
-9.2%,nt,?,-0.7%,Cc1cccc(NC(=O)c2cc(-c3cccnc3)nc3c(C)cccc23)n1
-19.8%,nt,-1.0%,nt,O=C(NN=C(c1ccccc1)c1ccccn1)c1ccccc1
-29.6%,0.2,-1.3%,-0.8%,COC(=O)c1ccccc1NC(=O)CN1CCC(n2nnc3cc(C(F)(F)F)ccc32)CC1
-1.7%,nt,0.0%,nt,Nc1ccc2c(c1)C(=O)c1ccccc1-2
-3.1%,-1.0,-1.1%,1.6%,COc1cccc(/C=C/C(=O)OC(C)C(=O)Nc2c(C)n(C)n(-c3ccccc3)c2=O)c1 (configuration not stated)
10.1%,2.6,4.8%,24.1%,S=C1NC[C@H](c2ccccc2)N1CC1CCCCC1
-8.1%,-1.1,1.7%,-4.6%,COc1ccc(C(C(=O)NC2CCCC2)N(Cc2ccccc2)C(=O)CNC(=O)c2ccco2)cc1 (configuration not stated)
8.8%,3.4,-0.7%,-63.9%,Cc1cccc(-c2nsc(SCC(=O)Nc3ccc4c(c3)OCO4)n2)c1
4.4%,nt,-1.0%,2.0%,COc1ccc(S(=O)(=O)N2CN3CCN(C3)C2)cc1OC
12.0%,-0.8,-0.9%,-1.8%,O=C(OCc1c(Cl)cccc1Cl)c1cccnc1
8.3%,nt,-1.7%,nt,Cc1ccc(C)c(OCCC(=O)Nc2cccc(S(=O)(=O)NC3=NCCCCC3)c2)c1
2.2%,6.3,3.3%,-23.6%,O=C(NCc1ccccc1)NC(=O)c1ccccc1
?,1.7,?,-6.3%,COCCCn1c(=O)/c(=C\c2ccc(OC(F)F)c(OC)c2)s/c1=C(/C#N)C(N)=O
0.9%,3.8,-2.0%,-0.3%,C=CCNC(=S)N1CCN(CCN=CC2=C(O)CC(c3ccco3)CC2=O)CC1 (configuration not stated)
-0.2%,nt,-2.0%,7.7%,CC(NS(=O)(=O)c1ccc(OCC(=O)NCc2cccnc2)cc1)c1ccccc1 (configuration not stated)
2.7%,-0.9,-1.0%,0.9%,Nc1ccccc1OCCOCCOCCOc1ccccc1N
-6.2%,nt,1.0%,3.5%,Nc1cc(OC(=O)c2ccc(F)cc2)nn1S(=O)(=O)c1ccc(F)cc1
-10.7%,nt,1.9%,-8.9%,CC(CCc1ccc(O)cc1)N1CCC(Oc2ccc(C(=O)N3CCCC3)cc2)CC1 (configuration not stated)
0.8%,-2.0,-1.3%,-8.5%,COc1ccc(NC(=S)Nc2ccc3cn[nH]c3c2)cc1
-19.1%,nt,5.3%,-3.8%,Cc1ccc(N2C(=O)C3C4C=CC(CC4)C3C2=O)cc1[N+](=O)[O-] (configuration not stated)
6.7%,2.0,-2.6%,-4.2%,CCOC(=O)N1CCC(n2c(=S)[nH]c3cc(OC)c(OC)cc3c2=O)CC1
-11.5%,-5.1,2.2%,3.2%,N/C(CSc1ncccc1C(F)(F)F)=N\O
-5.6%,nt,-4.0%,0.8%,CCCCNC(=O)C1Cc2cc(S(=O)(=O)N3CCCCC3)ccc2N1C(C)=O (configuration not stated)
-5.3%,-2.8,-2.5%,-13.2%,CC(C)(C)c1ccc(CNc2cc(N3CCOCC3)ccc2[N+](=O)[O-])cc1
-0.1%,2.5,-2.6%,5.0%,Cc1cc(NC(=O)c2ccc(Cl)c([N+](=O)[O-])c2)no1
4.9%,-1.9,-1.7%,1.2%,O=C(O)CCC(=O)Nc1ccc(Br)cc1C(=O)c1ccc(Cl)cc1

3 entries from above, with values under each structure.
The line under a structure holds: Rango release inh | GLA inh pH 4.5 | Rango complex inh | miR-21 FLuc
> Brc1cnc2nc(SCc3nc4ccccc4[nH]3)[nH]c2c1
 : 4.5% | -1.6 | -3.2% | 8.7%
> Cc1nc(C)c(-c2csc(Nc3ccc(S(N)(=O)=O)cc3)n2)s1
 : -7.7% | nt | -1.5% | 5.0%
> Cc1cccc(NC(=O)c2cc(-c3cccnc3)nc3c(C)cccc23)n1
 : -9.2% | nt | ? | -0.7%

The listing picks up, starting two compounds before the break.
Rango release inh,GLA inh pH 4.5,Rango complex inh,miR-21 FLuc,SMILES
-0.1%,2.5,-2.6%,5.0%,Cc1cc(NC(=O)c2ccc(Cl)c([N+](=O)[O-])c2)no1
4.9%,-1.9,-1.7%,1.2%,O=C(O)CCC(=O)Nc1ccc(Br)cc1C(=O)c1ccc(Cl)cc1
0.7%,10.1,2.4%,-2.0%,O=C(CN1CCN(Cc2ccccc2)CC1)c1ccc(Br)cc1
nt,0.4,nt,-0.3%,CCCCCCC12CCC(C(=O)O)(CC1)CC2
-6.0%,-4.6,?,-51.2%,CC(=O)Nc1ccc2nc(-c3ccc(Br)o3)[nH]c2c1
2.1%,10.2,5.1%,-4.1%,O=c1[nH]c2cc3c(cc2cc1CN(CCCO)Cc1nnnn1Cc1ccc(F)cc1)OCO3
-3.4%,-1.6,-0.7%,-39.8%,COc1ccc(C2=NN(CC(=O)Nc3ccccc3C)C(=O)CC2)cc1
-11.3%,?,-3.5%,-6.0%,CC1CN(c2ccc(C(=O)c3ccccc3C(=O)O)cc2[N+](=O)[O-])CC(C)O1 (configuration not stated)
-0.8%,nt,-0.4%,nt,CC(C)(C)OC(=O)NCCCCCNC(=O)c1ncn(Cc2ccccc2)c1C(=O)NCCCCCNC(=O)OC(C)(C)C
12.8%,-29.7,-1.9%,1.8%,CC(C)CNC(=S)N1CCN(C(c2ccccc2)c2ccccc2)CC1
11.4%,-0.6,3.1%,5.9%,COc1ccc(NC(=O)CC2C(=O)N(Cc3ccccc3)C(=S)N2CCN2CCOCC2)cc1 (configuration not stated)
nt,-4.7,nt,-23.7%,O=c1c(C=NCCN2CCNCC2)c(-c2ccccc2)[nH]n1-c1ccc([N+](=O)[O-])cc1
-4.2%,-5.3,0.3%,-1.0%,COc1ccc(CC2(CO)CCN(Cc3ccc4nsnc4c3)CC2)cc1
-5.3%,nt,-0.1%,-8.3%,CC(C)c1ccc(N2C(=O)C3C4C=CC(CC4)C3C2=O)cc1 (configuration not stated)
-9.4%,nt,0.5%,nt,CC1(C)CC(=O)C=C(c2ccc(OC(F)(F)F)cc2)C1
-20.4%,nt,4.8%,-2.4%,O=C(Nc1cccc(-c2ccc(F)cc2)c1)C1CCCN(C(=O)c2cscn2)C1 (configuration not stated)
2.9%,7.2,1.0%,1.5%,C#CCSc1nc(C)cc(C(=O)OCC)c1C#N
6.2%,10.5,-0.9%,-10.2%,CCCNC(=O)CNC(=S)N(Cc1cc(OC)c(OC)c(OC)c1)C1CCCC1
11.6%,0.5,-1.8%,-9.5%,Cc1c(C(=O)N2CCN(S(C)(=O)=O)CC2)oc2ccccc12
0.5%,nt,-1.2%,nt,CN(C)C(=O)c1ccc(NC(=O)CSc2nnc(-c3cccs3)n2N)cc1
-10.2%,-4.5,-0.9%,-0.2%,Cc1ccccc1C(=O)Nc1cccc(-c2nnc(SCC(=O)O)n2C)c1
-2.5%,7.4,0.8%,-14.2%,COC(=O)c1ccc(CSc2nnnn2-c2ccccc2)o1
-5.0%,3.5,0.2%,0.0%,CCOC(=O)C(Cc1ccc(O)cc1)NC(=O)CNC(=O)C(CC(C)C)NC(=O)OC(C)(C)C (configuration not stated)
-18.8%,nt,?,nt,Clc1ccc2c(SCC3CO3)c3ccccc3nc2c1 (configuration not stated)
9.2%,-2.9,-0.3%,1.2%,Cn1cccc1/C=N/NC(=O)Cn1cnc2ccccc21
-10.9%,-2.3,-1.0%,-4.9%,Cc1ccc(Cl)cc1N1CCN(S(=O)(=O)c2ccc3c(c2)OCCO3)CC1
19.3%,4.3[21.1 µM],-2.6%,0.6%,CCOC(=O)c1cn(C2CC2)c2c(F)c(F)c(F)cc2c1=O
-9.0%,-0.1,-1.9%,-1.4%,Cc1cc(N2CCN(c3ccc([N+](=O)[O-])c4cccnc34)CC2)c2ccccc2n1
0.7%,nt,-3.1%,nt,Nc1ncc2[nH]c(N)nc2n1
2.9%,nt,-0.6%,nt,O=C(/C=C/c1ccccc1Cl)NNC(=O)c1ccncc1
-22.3%,-11.3,-1.3%,-4.4%,Cc1cccc(N2CCN(C(=S)Nc3ccc4nc(N5CCOCC5)cc(C)c4c3)CC2C)c1 (configuration not stated)
-7.1%,nt,-2.9%,nt,c1ccc(-c2cnnc(-c3ccccn3)n2)cc1
-2.6%,-13.1,-0.2%,-53.3%,Cc1cc(/C(N)=N/OC(=O)c2cccc(Cl)c2)no1
-2.8%,nt,?,2.4%,O=c1[nH]c2ccccc2cc1CN(CC1CCCO1)S(=O)(=O)c1ccc(Cl)cc1 (configuration not stated)
5.8%,-0.4,0.0%,-3.4%,CCCNS(=O)(=O)c1cccn1-c1ncc(C(F)(F)F)cc1Cl
10.6%,nt,-4.6%,-2.3%,CCC(Oc1ccccc1)C(=O)Nc1ccccc1N1CCCC1 (configuration not stated)
?,-3.1,?,-44.6%,COc1ccc2nc(Nc3sc4c(c3C(N)=O)CCCC4)sc2c1
-3.5%,nt,0.0%,-10.6%,CSc1cccc(-n2ccc(=O)c(C)c2C)c1
-25.5%,-9.8,0.0%,-53.6%,N#C/C(=C\c1ccc(OCc2ccc(C(=O)O)cc2)cc1)C(=O)N1CCOCC1
?,10.0,?,-44.4%,Cn1c(CSc2nc3ccccc3n2C)nc2ccccc21
-9.0%,-0.3,0.8%,-3.8%,N#C/C(=C/c1cccc([N+](=O)[O-])c1)C(=O)Nc1ccccc1O
-6.8%,nt,3.8%,15.6%,COc1ccc2ccccc2c1CNC(C)CCc1ccccc1 (configuration not stated)
1.2%,-3.8,-3.9%,-69.5%,CC(C)(C)c1ccc(C(=O)Nc2ccc([N+](=O)[O-])cn2)cc1
?,?,?,-70.0%,CCOc1cc(-c2nc3ccccc3s2)ccc1O
14.5%,nt,0.1%,-6.5%,CCC(=O)N(Cc1cc(=O)[nH]c2ccccc12)c1ccccc1OC
-1.4%,nt,-1.8%,-3.5%,COc1ccc(OC)c(C(=O)Cn2cnc3ccccc3c2=O)c1
-16.0%,nt,6.8%,nt,O=C(NNC(=O)c1cc(Cl)ccc1[N+](=O)[O-])c1csc(N2CCOCC2)n1
-0.1%,3.5,2.0%,-27.0%,COc1cccc(NC(=O)C2CCCCC2)c1
2.8%,3.5,1.2%,2.0%,CCN1CCN(c2nc3c(c(=O)n(C)c(=O)n3C)n2CCSc2ncccn2)CC1
-6.3%,10.5,-1.5%,-5.9%,CN(C)CCOC(=O)c1ccc2c(c1)S(=O)(=O)c1ccccc1C2=O
-4.1%,-5.4,-0.2%,0.7%,CCOc1cccc(-c2cc(C(=O)N3N=C(C)CC3(O)C(F)F)c3ccccc3n2)c1 (configuration not stated)
-4.3%,nt,-0.4%,nt,CCOc1cc2c(C#N)c(N3CCCC3)nc(N)c2c(N)n1
2.2%,-6.9,1.8%,-11.4%,COc1cccc(C2CCCN2Cc2nc(-c3sccc3C)oc2C)c1 (configuration not stated)
-16.1%,nt,-2.1%,-1.2%,O=C(C1=C(O)C(=O)N(CCN2CCOCC2)C1c1ccc(Cl)cc1)c1cc2ccccc2o1 (configuration not stated)
24.4%,-2.5,-4.3%,-3.9%,CCCc1nc(SCC(=O)N2CCN(c3ccccc3)CC2)c2c(=O)n(C)c(=O)n(C)c2n1
10.5%,-11.0,-6.2%,0.5%,CN1C(=O)C(CC(=O)NCCc2ccccc2)N(NC(=O)c2ccc(Cl)cc2)C1=S (configuration not stated)
3.2%,-1.4,-0.2%,-3.9%,CCOC(=O)Nc1cccc2ccccc12
